Beta cell apopt = beta cell apoptosis inhibition; INS-1E cytokine-induced death, ATP luminescence, 48 h; percent of positive-control rescue, neutral wells zero; protection from apoptosis, % (concentration not given with the values); 300,000 tested, 0.8% active;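 active = all replicates at 75% or more, or half of them and the mean; inconclusive = half reach 75% but not the mean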;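 note: 0% = cytokine-treated negative control wells and 100% = positive control rescue; higher means more ATP so stronger rescue from cytokine killing; wells of about 40 µL received 100 nL stock; the first replicate is given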
T cruzi inh = blocks replication of Trypanosoma cruzi; T. cruzi beta-gal in NIH3T3, luminescence, 90 h; 300,000 tested, 1.4% active; inhibition, % (concentration not given with the values);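 active = mean inhibition across valid replicates above about 55%, limit read from the data; inconclusive = mean below that limit but half or more replicates reach it; inactive = mean below it, under half of replicates reach it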;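 note: signal also drops with host cell toxicity which is not excluded here; 0% = plate median of DMSO wells and 100% = zero luminescence signal; higher percent means less beta-gal luminescence so fewer parasites; stock transfer was 50 nL into about 50 µL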
Vif TR-FRET = inhibitors of Vif binding to APOBEC3G peptide, primary screen, biochemical, TR-FRET, GST-Vif 1-94, biotin-A3G peptide, dose response retest (AID 1117319) | TR-FRET GST-Vif / biotin-A3G peptide binding; higher % means a stronger effect; test concentration not given here; strong numbers were not always called active | one-dose inhibition, %; IC50 in µM for titrated hits | 260,000 tested, 0.57% active;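 active = above the screen mean plus three standard deviations and confirmed in dose response; inconclusive = results disagree or hit not tested in dose response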;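 note: Vif residues 1-94 fused to GST binding biotinylated APOBEC3G peptide 110-148; 0% = full assay without inhibitor and 100% = GST in place of GST-Vif; retest series ran down from 100 µM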
LANA-H2A inh = blocks KSHV LANA binding to histone H2A/H2B; 320,000 tested, 0.6% active; cell-free LANA-H2A/H2B peptide, fluorescence polarization; Q9QR71; AID 2629; inhibition, % (no concentration beside the values); in the data active = inhibition mostly above about 10%, no sharp cut-off; inactive = mostly below about 6.7%;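 note: stock transfer was 7.5 nL into about 10 µL; 0% = median of vehicle wells and 100% = median of positive control wells; one replicate is shown; the record names a cut of 25% in any replicate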
Target sequence (Q9QR71 whole entry, looked up): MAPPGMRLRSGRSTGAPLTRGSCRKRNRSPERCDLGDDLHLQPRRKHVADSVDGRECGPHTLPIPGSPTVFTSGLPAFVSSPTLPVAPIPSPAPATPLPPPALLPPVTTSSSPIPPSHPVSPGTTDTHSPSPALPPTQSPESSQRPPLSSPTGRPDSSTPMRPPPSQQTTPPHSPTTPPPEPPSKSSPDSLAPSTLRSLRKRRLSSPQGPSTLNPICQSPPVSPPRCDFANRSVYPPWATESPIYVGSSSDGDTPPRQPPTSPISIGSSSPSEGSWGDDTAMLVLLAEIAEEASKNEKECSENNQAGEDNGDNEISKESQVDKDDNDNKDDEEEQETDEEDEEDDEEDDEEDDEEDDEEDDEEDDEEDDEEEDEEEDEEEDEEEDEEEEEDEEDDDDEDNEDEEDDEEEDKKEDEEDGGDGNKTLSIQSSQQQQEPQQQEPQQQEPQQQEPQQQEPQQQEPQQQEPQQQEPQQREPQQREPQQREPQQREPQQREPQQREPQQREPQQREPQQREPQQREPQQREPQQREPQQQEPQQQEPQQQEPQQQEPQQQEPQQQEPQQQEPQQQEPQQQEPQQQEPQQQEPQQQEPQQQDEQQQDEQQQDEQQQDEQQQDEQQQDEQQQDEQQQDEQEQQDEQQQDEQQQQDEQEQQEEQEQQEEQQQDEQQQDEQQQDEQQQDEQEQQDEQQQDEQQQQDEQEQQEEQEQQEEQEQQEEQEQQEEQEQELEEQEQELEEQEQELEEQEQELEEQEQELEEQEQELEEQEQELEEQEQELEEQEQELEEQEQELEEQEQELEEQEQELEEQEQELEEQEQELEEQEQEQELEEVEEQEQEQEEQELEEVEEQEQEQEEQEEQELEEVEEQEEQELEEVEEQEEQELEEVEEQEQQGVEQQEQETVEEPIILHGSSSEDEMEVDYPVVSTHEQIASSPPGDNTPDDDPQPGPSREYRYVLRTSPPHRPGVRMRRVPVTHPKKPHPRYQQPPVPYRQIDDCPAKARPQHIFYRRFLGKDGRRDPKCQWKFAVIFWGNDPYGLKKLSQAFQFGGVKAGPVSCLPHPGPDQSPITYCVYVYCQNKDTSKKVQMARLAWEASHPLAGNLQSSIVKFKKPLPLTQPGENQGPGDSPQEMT
RanGTP-Imp inh = inhibitors of RanGTP-importin-beta interaction, primary screen, biochemical, FRET, CFP-Ran, YFP-importin-beta, homogeneous | cell-free CFP-Ran/YFP-importin-beta FRET ratio | inhibition, % (concentration not given with the values) | 300,000 tested, 1.1% active;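 active = most replicates above 15%; inconclusive = exactly half above 15%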;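 note: 0% = DMSO wells and 100% = Ran loaded with GDP instead of GTP; wells of about 40 µL received 100 nL stock; the first replicate is given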
Bfl-1 A1 inh = inhibitors of the anti-apoptotic protein A1, read as caspase activation. MEF A1-2A-BIM cells, Caspase-Glo 3/7 luminescence, 3 h; percent of clofoctol response, vehicle zero. caspase activation, % (no concentration beside the values). 330,000 tested, 0.066% active. AID 2462;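 active = over half of replicate activation scores above 10%, or exactly half above 10 with the replicate mean above 10; inconclusive = replicate mean below 10 yet half the replicates above 10; inactive = over half of replicates below 10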;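 note: wells of about 30 µL received 50 nL stock; many hits fall short of the cut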
MLL AF4-AF9 inh = inhibitors of human MLL-AF4/AF9 interaction. P42568. AlphaScreen, biotin-AF4 peptide binding to FLAG-AF9. inhibition, % at 10 µM. 350,000 tested, 0.47% active. AID 651704;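 active = every replicate reaching a set inhibition limit, whatever the replicate mean, cut at about 25% in these data; inconclusive = mean inhibition reaches that limit but some replicates miss it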;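 note: 0% = plate neutral control median and 100% = total signal loss; the record names both 10 and 1 µM as test concentration; the first replicate is given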
Calb FLC = affects C. albicans growth with fluconazole. growth inhibition, % (concentration not given with the values). 300,000 tested, 0.57% active. C. albicans CaCi-2 (fluconazole-resistant clinical isolate) + fluconazole, Alamar Blue growth, 48 h;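 active = most replicates above 75%; inconclusive = exactly half above 75%; inactive = most below 75%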;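 note: all wells also contain fluconazole at 8 µg/ml as a sub-toxic cotreatment; 0% = median of DMSO wells and 100% = median of geldanamycin control wells; wells of about 8 µL received 7.5 nL stock; the first replicate is given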
An asterisk follows results filed as active; ? = inconclusive; nt = no result given; & = joins results of further samples.

SMILES	Beta cell apopt	T cruzi inh	Vif TR-FRET	LANA-H2A inh	RanGTP-Imp inh	Bfl-1 A1 inh	MLL AF4-AF9 inh	Calb FLC
Clc1ccsc1-c1ccnc(-n2cccc2)n1	-1	3	-4%	0.8	0.2	0.4	-4.0	1
CCn1c(CCCOc2ccc(Cl)cc2Cl)nnc1SCC(=O)Nc1cc(F)ccc1C	-3	10	nt	-3.0	-0.4	0.4	-10	0
CCC(=O)Nc1cccc(NC(=S)NC(=O)c2cccc(C)c2)c1	1	-5	-3%	2.9	6.3	-2.9	2.5	2
CC1CCCC(C)N1/N=C/c1ccccc1Br (stereo not drawn)	1	-6	-3%	3.9	2.2	0.0	1.5	-8
Cc1cc(C)c2c(=O)[nH]c(SCC(=O)Nc3ccccc3)nc2n1	-6	-1	3%	-3.1	-5.1	0.7	nt	2
CCOC(=O)c1ccc(NC(=O)Nc2ccc(F)cc2)cc1	6	-9	27%	2.2	5.5	-2.3	nt	-6
Cc1ccc(C(=O)N/C(=C\c2ccc([N+](=O)[O-])cc2)C(=O)NCCc2ccccc2)cc1	2	2	-2%	3.6	-11	0.8	nt	3
CC(=O)Nc1ccc(S(=O)(=O)N2CCC(C(=O)NCc3ccncc3)CC2)cc1	nt	-20	nt	2.5	4.6	1.7	-1.1	1
CC(C)CCC1=NN(C(=O)c2ccco2)C(O)(C(F)(F)F)C1 (stereo not drawn)	5	8	8%	-4.0	0.7	0.1	1.3	-12
O=S(=O)(Nc1ccon1)c1ccc(F)c(F)c1	0	-7	nt	1.4	-1.8	-0.7	-1.6	-2
CC(OC(=O)Cn1cnc2ccccc2c1=O)C(=O)NCc1ccccc1 (stereo not drawn)	-9	-4	1%	-1.7	1.7	0.3	-5.3	0
CCc1ccccc1NC(=O)CCC(=O)c1cccs1	-6	-4	-1%	-7.7	2.2	0.2	0.5	29
Cc1cccc(C(=O)N2CCN=C2SCc2ccc([N+](=O)[O-])cc2)c1	-10	16	4%	-2.2	-0.6	0.1	5.0	-12
O=C(CCCn1c(=O)[nH]c2cc(Cl)ccc2c1=O)NCC1CCCO1 (stereo not drawn)	2	-15	20%	12	-1.7	0.4	nt	-1
COc1ccc(OCC(=O)N/N=c2\oc3c(OC)cccc3cc2C(N)=O)cc1	-4	3	nt	-7.1	0.1	0.3	nt	5
O=C(O)CC(NC(=O)Cc1ccc([N+](=O)[O-])cc1)c1ccc2c(c1)OCO2 (stereo not drawn)	-10	-5	3%	-0.2	2.8	?	-2.8	-4
Cc1ccc(NC(=O)c2cc(N3C(=O)CCC3=O)ccc2N2CCOCC2)cc1	9	-28	19%	0.8	0.8	0.9	-1.6	7
CNC(=O)c1cc(C(=O)c2ccc(Cl)cc2)c(Br)[nH]1	2	7	-30%	-6.1	1.8	0.3	-1.1	2
Cc1cc(Cl)nc(-n2nc(C)cc2C)n1	-3	-29	28%	1.8	4.3	0.8	1.9	-5
Cc1ccc(CSc2nnc(CC(=O)Nc3ccc(C)cc3)n2C)cc1	-4	-3	-2%	-1.5	4.1	0.9	nt	6
CCOC(=O)c1[nH]c(=O)c2ccccc2c1O	-6	-13	14%	-3.2	-4.7	-0.6	nt	-7
Cc1ccccc1CN1CCN(c2ccc(S(=O)(=O)N3CCCC3)cn2)CC1	5	nt	-11%	1.8	nt	-1.0	2.8	nt
COC(=O)CCCn1c(C)cc(C(=O)CCl)c1C	-41	-23	nt	4.2	1.9	0.9	-0.3	-1
COc1ccc(C(=O)N/N=C2\CCS(=O)(=O)c3ccc(F)cc32)cc1OC	2	-6	6%	-1.7	?	0.0	1.6	-1
Fc1ccc(C2c3[nH]c4ccccc4c3CCN2Cc2ccoc2)cc1 (stereo not drawn)	3	15	?	-0.8	3.4	0.1	9.3	8
CCCCn1c(N)c(N(CCOC)C(=O)CSc2nnc(-c3ccncc3)n2CCC)c(=O)[nH]c1=O	-1	-7	-2%	1.1	6.1	-0.1	-3.5	9
Cc1ccc(NC(=O)c2cc(S(=O)(=O)N3CCOCC3)ccc2F)c(C)c1	-2	-14	3%	-1.4	-4.0	0.2	nt	12
Cc1ccc(C(=O)N/C(=C\c2cccnc2)c2nc3ccccc3[nH]2)cc1	-13	2	nt	5.2	4.2	0.8	nt	5
CCN(CC(=O)Nc1c(F)cccc1F)C(=O)c1ccc2c(c1)S(=O)(=O)N=C1CCCCCN12	-7	-7	-7%	-4.0	-3.7	0.0	-8.2	-6
O=C(NCCN1CCOCC1)c1ccc(NC(=O)C2COc3ccccc3O2)cc1 (stereo not drawn)	-2	-13	14%	nt	-3.7	1.7	-1.6	46
CN(c1ccc(C(=O)Nc2ccc3c(c2)n(C)c(=O)n3C)cc1)S(C)(=O)=O	-1	-8	-8%	-1.7	-1.7	-1.0	-2.5	nt
CC(C)[C@H](NC(N)=O)C(=O)NNC(=O)COc1cccc(C(F)(F)F)c1	-3	0	nt	1.5	5.6	1.2	3.9	5
CCOC(=O)c1cnn2c(N)c(C#N)nnc12	2	-37	21µM*	0.8	-1.6	0.1	nt	9
Cc1onc(-c2c(F)cccc2Cl)c1C(=O)NCCc1ccncc1	-4	-1	nt	-1.3	1.6	-0.9	-2.5	21
O=C(COc1coc(CN2CCc3ccccc32)cc1=O)Nc1cccc(F)c1	4	0	nt	2.8	-0.4	1.2	-1.2	6
Cc1ccc(S(=O)(=O)c2cn(C)c3cc(N4CCOCC4)c(F)cc3c2=O)cc1	-1	-3	nt	-0.6	0.8	0.1	-0.3	8
CCOc1ccc(N(CC(=O)Nc2ccc(OC)cc2)C2=NC3CS(=O)(=O)CC3S2)cc1 (stereo not drawn)	-14	10	nt	6.1	-0.7	-0.6	3.8	-14
C=CCC(NCc1ccccc1)c1ccc(Cl)cc1 (stereo not drawn)	-2	-14	-2%	0.5	9.0	1.0	-3.7	-1
O=C(CSc1nncs1)NC(=O)Nc1ccc2c(c1)OCCO2	5	-21	-10%	-0.5	5.2	-2.2	-18	?
Cc1cc(N2CCN(c3ccccc3F)CC2)nc2cc(O)ccc12	-4	-3	-6%	5.2	5.4	-0.3	nt	11
CN(CC(=O)Nc1ccccc1Cl)C(=O)C1CSC2(C)CCC(=O)N12 (stereo not drawn)	-8	nt	-15%	-2.4	nt	1.1	-4.2	nt
COc1ccc(CNC(=O)CCn2c(C)csc2=O)cc1	2	nt	-16%	-1.2	nt	-0.4	-1.7	nt
COc1ccc(OCC(=O)N2CCc3c([nH]c4ccccc34)C2c2ccccn2)cc1 (stereo not drawn)	-2	17	nt	-0.8	1.5	-0.3	6.4	-11
COc1ccc(-c2cn[nH]c2-c2ccc(O)cc2O)cc1	-23	0	-3%	1.4	-2.5	0.8	3.6	-2
CCn1cc(C(=O)OCC(=O)c2cc(C)n(-c3ccccc3F)c2C)c(=O)c2ccc(C)nc21	-8	29	-10%	-2.5	6.2	0.1	nt	15
CC(=O)c1cc(C(=O)Nc2ccccc2C(=O)O)oc1C	1	1	20%	7.0	-0.6	-5.5	nt	-10
CCCn1nc(C(=O)Nc2cccc(S(=O)(=O)N(C)c3ccccc3)c2)c2ccccc2c1=O	12	nt	nt	1.3	nt	-0.1	-1.1	nt
O=C(Nc1ccc2c(c1)OCCO2)c1ccc(S(=O)(=O)N2CCCCC2)cc1	0	8	1%	0.1	?	0.3	nt	0
Cc1c(C)n(C)c2ccc(C(=O)NCCCN3CCCCC3)cc12	-3	11	nt	-4.8	3.0	1.3	4.7	-9
O=C(Nn1cnnc1)c1ccc([N+](=O)[O-])cc1Cl	-1	5	nt	8.2	-3.0	-0.2	-0.5	-6
(next part)
SMILES	Beta cell apopt	T cruzi inh	Vif TR-FRET	LANA-H2A inh	RanGTP-Imp inh	Bfl-1 A1 inh	MLL AF4-AF9 inh	Calb FLC
CCN(CCO)c1nc(N2CCCCC2)c2cnn(C)c2n1	-9	12	-1%	1.0	-1.2	-0.4	0.9	-9
Cc1cccc(NC(=O)Nc2ccccn2)c1C	0	-10	5%	0.4	1.2	-1.3	-17	18
Cc1noc(C)c1COC(=O)CCc1nc2ccccc2c(=O)[nH]1	2	-7	22%	-1.1	0.1	0.3	nt	8
COc1ccc(NC(=O)c2cccc(Cn3cc(Br)c([N+](=O)[O-])n3)c2)c(C)c1	8	68*	2%	-4.6	8.4	0.1	-0.4	-13
O=C(Nc1cccc(S(=O)(=O)N2CCOCC2)c1)c1ccc(=O)[nH]c1	-4	nt	-1%	-4.5	nt	-0.1	-1.6	nt
Cc1c(NC(=O)CSc2nc3ccccc3[nH]2)c(=O)n(-c2ccccc2)n1C	1	1	3%	-2.9	2.8	0.4	nt	?
Cc1nc(NC(=O)c2oc3ccccc3c2C)sc1C(=O)N(C)C	-6	8	9%	-2.0	1.7	0.1	nt	2
O=C1C=C(Nc2ccccc2)CC(c2ccccc2)C1 (stereo not drawn)	2	7	1%	-1.1	3.3	0.0	-2.7	9
O=C(CCC(=O)N1CCOc2ccccc21)NCCN1CCOCC1	4	-15	nt	5.7	1.0	0.3	-3.7	4
CC(C)(C)OC(=O)NCCc1nnc(SCC(N)=O)o1	1	-6	6%	8.0	?	0.6	nt	-8
CCNC(=S)N/N=C/c1ccc(OCC(=O)Nc2ccc(OC)cc2)c(OC)c1	-5	-3	0%	1.0	3.1	0.2	nt	-3
CSc1ncccc1C(=O)OCc1ccc(C#N)cc1	3	7	-10%	-0.4	-2.1	-0.2	nt	-6
O=C(O)CCN1C(=O)c2ccc(NC(=O)C(c3ccccc3)c3ccccc3)cc2C1=O	1	12	-7%	-6.8	2.9	0.5	-31	3
CN(C)/C=N/c1sc2c(c1C(N)=O)CCCC2	-1	-10	-4%	-3.0	0.3	-0.5	2.7	7
O=C(COC(=O)[C@H](Cc1ccccc1)N1C(=O)c2ccccc2C1=O)Nc1ccc2c(c1)OCO2	-8	5	-1%&3%	2.7	3.9	0.9	nt	-2
CCCCc1cc(=O)oc2cc(C)cc(OC(C)C(=O)NCC3CCC(C(=O)O)CC3)c12 (stereo not drawn)	0	5	nt	1.1	-1.5	-0.9	1.0	-4
COc1ccc(Cl)cc1NC(=O)CSc1nnc(COc2ccccc2)n1C	-6	9	2%	7.0	3.9	0.5	nt	14
CCCCn1c(=O)cc(C)n(-c2ccccc2)c1=O	2	3	nt	0.1	-2.2	0.4	-4.0	-1
COC(=O)C1=C[C@@H](C(=O)OC)[C@@H]2C3=C(C(=O)[C@]2(C)NC(=O)c2ccccc2)[C@H](C)n2c(=O)n(C)c(=O)n2[C@@H]3C1	-9	11	nt	0.8	-3.1	0.3	0.2	-3
CCN(CC)C(=O)CSc1nc2ccccc2o1	3	-4	5%	-1.8	-2.8	0.5	nt	-1
O=C(NCCN1CCOCC1)c1nn2c(c1Cl)NC(c1ccccc1)CC2C(F)(F)F (stereo not drawn)	2	4	0%	7.9	-1.2	-0.4	nt	0
C=CCn1c(CCC(O)COCCCCC)n[nH]c1=S (stereo not drawn)	-3	-18	nt	-5.9	3.8	0.1	-3.5	-3
COCC(O)CSc1nc(C)[nH]c1[N+](=O)[O-] (stereo not drawn)	-5	4	-3%	1.6	3.4	-0.3	nt	-2

Screening data: PubChem, several laboratories
